TRPV1 PAM: human TRPV1 potentiation; Q8NER1; potentiation, % at 8.33 µM; TRPV1-expressing cells, Fluo-8 calcium influx, capsaicin EC20 potentiation; host cell line not named in the record; control for the full effect not named in the record; 320,000 compounds, 0.02% hits; active means potentiation above 80%; inconclusive means 30% to 80%; inactive means below 30%; further: 0% is about no effect
Target sequence (Q8NER1 whole entry, looked up): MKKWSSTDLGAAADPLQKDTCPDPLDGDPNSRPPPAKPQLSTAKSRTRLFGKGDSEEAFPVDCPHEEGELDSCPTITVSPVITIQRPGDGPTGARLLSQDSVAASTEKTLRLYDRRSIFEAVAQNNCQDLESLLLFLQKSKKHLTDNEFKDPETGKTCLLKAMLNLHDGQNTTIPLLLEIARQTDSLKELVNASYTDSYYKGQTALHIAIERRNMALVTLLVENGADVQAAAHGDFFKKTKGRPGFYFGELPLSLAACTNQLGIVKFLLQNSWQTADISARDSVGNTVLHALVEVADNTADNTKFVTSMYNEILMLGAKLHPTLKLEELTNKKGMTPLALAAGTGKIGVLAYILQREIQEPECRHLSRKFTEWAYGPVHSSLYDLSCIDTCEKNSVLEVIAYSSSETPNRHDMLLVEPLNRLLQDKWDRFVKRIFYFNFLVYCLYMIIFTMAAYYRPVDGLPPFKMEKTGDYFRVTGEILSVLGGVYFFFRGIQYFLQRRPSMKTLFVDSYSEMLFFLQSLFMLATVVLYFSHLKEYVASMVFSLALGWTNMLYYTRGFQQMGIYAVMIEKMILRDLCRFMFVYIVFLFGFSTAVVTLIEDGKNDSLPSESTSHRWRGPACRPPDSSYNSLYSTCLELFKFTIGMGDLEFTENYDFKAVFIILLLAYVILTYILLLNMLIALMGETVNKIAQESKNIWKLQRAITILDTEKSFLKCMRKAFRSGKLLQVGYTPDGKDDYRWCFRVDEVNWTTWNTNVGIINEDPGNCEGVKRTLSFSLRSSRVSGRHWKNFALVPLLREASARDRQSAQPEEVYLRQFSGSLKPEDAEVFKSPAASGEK
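Fluo-8 calcium influx in TRPV1-expressing cells, kinetic read (ex 480/em 520 nm). Compound added and read 3 min for agonist activity, followed by capsaicin at EC20 final and 2 min further read for enhancement.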
TRPML1 blocker: blocks the human TRPML1 channel. 390,000 compounds, 0.02% hits. Q9GZU1. AID 624415. TRPML1-inducible cells, Ca2+ dye fluorescence, FDSS; active compounds read low; inhibition of EC80 agonist-evoked calcium signal. activity change, negative = inhibition, % (test concentration not listed); in the data active means activity change below about -50%; inconclusive means about -30% to -50%; inactive means above about -30%;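 further: stimulus is agonist 54-4 at its EC80 concentration; on the % scale 0 is the no-effect control and ±100 the full control effect; compound concentration not given in the record; the text of the record puts the active cut at -80%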
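Calcium fluorescence in TRPML1-DL cells induced overnight with Tet: a 110 s read after compound pin addition, then a 110 s antagonist read after challenge with 54-4 at 4 uM final (EC80).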
Sfp PPTase inh: blocks B. subtilis Sfp PPTase activity | Biochemical Sfp PPTase activity, qHTS | Potency, µM, without a hit: max response, negative = inhibition, actives largely listed as inhibitors | 310,000 compounds, 3.5% hits | AID 1490; active means well fitted inhibition curve with a large enough effect; inconclusive means small, poorly fitted or top-dose-only effect, or another doubt; inactive means no such curve, though single readings can be large or run the other way;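 further: the enzyme is Sfp with the accession as filed and its product quenches rhodamine fluorescence; potency means the concentration at half of the fitted maximal effect; 0% = enzyme reaction without inhibitor and -100% = no enzyme wells; top concentration of the series not given in the record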
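Sfp 15 nM + cpd, 15 min RT; start w/ rhodamine-CoA 5 uM, BHQ-2-YbbR 12.5 uM (final); 50 mM Hepes pH 7.6, 10 mM MgCl2, 0.01% NP-40, 0.01% BSA; read 525/598 nm at 0 and 30 min.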
gsp antag: gsp mutant antagonism; gsp-mutant cells, cAMP HTRF, 30 min; control for the full effect not named in the record; Potency, µM (series often up to 76.9 µM), for the others: at the top dose activity change, negative = inhibition, usual class: inhibitors; 340,000 compounds, 0.4% hits; AID 624288; active = falling curve of any shape with a large fitted effect; inconclusive = falling curve, mostly with a smaller effect; inactive = flat or rising curve; cell line not stated here;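 further: intracellular cAMP measured with PDE inhibitor Ro 20-1724 present during compound exposure; potency means the concentration at half of the fitted maximal effect; on the % scale 0 is the no-effect control and ±100 the full control effect; nearly all actives have a fitted effect of over 65% in size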
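Cells in G418 medium, seeded 16-24 h, 37C; buffer exchange to DPBS + 1 mM CaCl2, 0.5 mM MgCl2, 0.05% BSA; cpds in DMSO + […] (300 uM stock), 30 min 37C; HTRF cAMP detection.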
gsp agonist: gsp mutant agonism; Potency, µM (series often up to 76.9 µM), inactives show at the highest dose activation (cAMP increase), usual class: activators; AID 624287; gsp mutant cells, cAMP HTRF, 30 min; control for the full effect not named in the record; 340,000 compounds, 0.13% hits; active = well fitted activation curve with a large enough effect; inconclusive = small, poorly fitted or top-dose-only effect, or another doubt; inactive = no such curve, though single readings can be large or run the other way; cell line not stated here;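 further: phosphodiesterase inhibitor Ro 20-1724 added with compounds to block cAMP breakdown; potency means the concentration at half of the fitted maximal effect; nearly all actives have a fitted effect of over 60% in size; about a fifth of the inactives were tested at one dose only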
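Cells stably selected in G418 were plated at 2000/well, grown 16-24 hr, then given compounds in DMSO with the PDE inhibitor […] (300 uM solution added) for 30 min at 37C; cAMP was read by HTRF.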
ClpP mod: qHTS Assay for Activators of ClpP | ATP-dependent Clp protease proteolytic subunit (Bacillus subtilis (strain 168)), P80244 | purified B. subtilis ClpP, FRET peptide cleavage, 20 min | Potency, µM (doses to about 57.5 µM), for inactives: at the top dose activity change, negative = active | 340,000 compounds, 1.9% hits; active = well fitted falling curve with a large enough effect; inconclusive = small, poorly fitted or top-dose-only effect; inactive = no such curve, though single readings can be large or run the other way; further: potency means the concentration at half of the fitted maximal effect; the source files actives as falling curves though it sought activators and does not explain the sign; nearly all actives have a fitted effect of over 65% in size; many hits overshoot -100%
Target sequence (P80244 whole entry, looked up): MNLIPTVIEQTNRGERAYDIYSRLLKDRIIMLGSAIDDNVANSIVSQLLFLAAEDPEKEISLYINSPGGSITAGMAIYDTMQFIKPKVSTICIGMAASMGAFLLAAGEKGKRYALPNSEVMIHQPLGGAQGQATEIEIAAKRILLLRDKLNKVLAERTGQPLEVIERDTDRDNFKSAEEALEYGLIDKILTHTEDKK
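Buffer: 100 mM Tris/HCl pH8, 100 mM KCl, 0.05% low protease BSA, 2.5% glycerol, 0.01% Tween-20. ClpP 10 microg/mL final; 20 min RT; delta FRET normalized to ADEP and DMSO controls.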
Menin-MLL FL inh: inhibitors of human menin-MLL interaction, wild-type MLL peptide; FP activity change, % at 61.4 µM; Fluorescence polarization, fluorescein-MLL peptide displacement from menin; 290,000 tested, under 10 active; inconclusive = falling polarisation curve, or a change in total fluorescence; inactive = total fluorescence flat and polarisation flat or rising; no compound was filed as active; the % refers to the polarisation; negative = inhibition;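 further: % of control where 0% means no effect; inhibitors lower the polarisation; unlabelled MLL peptide was the positive control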
Starred values were filed as active, the others as inactive; u = inconclusive; x = no result given; & = joins results of further samples; [ ] = remark or other dose.

molecule	gsp agonist	Sfp PPTase inh	gsp antag	ClpP mod	Menin-MLL FL inh	TRPV1 PAM	TRPML1 blocker
CCOc1ccc(NC(=O)CCC(=O)NNC(=O)c2ccc(Br)o2)cc1	6%[15.4 µM]	3%	10%	-0.6%	-6.5	6	-4
Cc1ccc(C(=O)NCCc2ccccn2)cc1S(=O)(=O)N1CCOCC1	5%[15.4 µM]	25%	-7%	x	1.2	-6	7
CCOC(=O)c1ccc(CNC(=O)C2CCC(=O)N(Cc3cccc(OC)c3)C2)o1 (stereo not given)	-1%	7%	7%	-23%	x	0	4
CCSc1nc(-c2cccnc2)ccc1C#N	u	-1%	0%	-26%	9.7	-1	-7
CCCCc1c(O)cc(C)[nH]c1=O	-8%[15.4 µM]	19%	6%	x	0.9	5	15
COc1ccc(-c2ccc3oc(-c4ccc(OC)cc4)c(C#CC4(O)CCCCC4)c3c2)cc1	x	x	5%	3.9%	x	x	70
CCOC(=O)COn1c(=O)c(-c2ccc(OCC)cc2)[n+]([O-])c2ccccc21	u	1%	-3%	-10%	1.7	-1	-4
CCOc1nnc(C)c2c(C)n(-c3cccc(Cl)c3)nc12	-2%	-13%	-17%	1.6%	u	-17	-1
CC(C)n1nnnc1SCC(=O)Nc1ccccc1N1CCOCC1	9%[15.4 µM]	-8%	-4%	2.5%	0.6	8	24
Cn1c(SCC(=O)c2ccc3c(c2)OCO3)nnc1-c1ccccn1	9%	-5%	-1%	-1.4%	1.0	0	30
CC(=O)Nc1ccc(C(=O)N/N=C/c2cccnc2)cc1	u	21%	8%	-2.6%	0.5	-2	-13
O=C(COC(=O)c1n[nH]c(=O)c2ccccc12)Nc1ccccc1	5%[15.4 µM]	x	5%	-3.6%	x	10	10
Cc1ccc(C(=O)NCCc2sc(C)nc2C)cc1	12%	-15%	-4%	u	-1.4	1	-16
COc1ccc(C2CC(c3ccccc3)=NN2C(=O)COC(=O)c2nc3nccc(C)n3n2)cc1 (stereo not given)	-15%	10%	-18%	-0.7%	0.5	1	16
CN(C)CCN1C(=O)c2cccc3cc([N+](=O)[O-])cc(c23)C1=O	19%	x	u	-3.0%	x	x	4
COc1cccc(CN2C(=O)C(C)N(C(=O)c3ccccc3)c3ccccc32)c1 (stereo not given)	17%	2%	-8%	x	3.4	9	10
COc1ccc(S(=O)(=O)N2CCCCCC2)cc1NC(=O)CN1C(=O)CNC1=O	13%[15.4 µM]	x	5%	0.4%	x	x	2
O=C(NCc1cccnc1)/C(=C/c1ccc(-c2cccc(C(F)(F)F)c2)o1)NC(=O)c1ccccc1	11%	5%	8%	-16%	3.9	-3	-2
O=C(c1ccccc1F)N1CCN(c2ccc([N+](=O)[O-])c3cccnc23)CC1	7%[15.4 µM]	-1%	-92%	x	-4.5	-1	4
CCOC(=O)CNC(=O)CN1CCC(c2nc3ccccc3[nH]2)CC1	22%	11%	-7%	-3.9%	x	-21	-11
Nc1cc(C(F)(F)F)ccc1C(=O)O	x	16%	x	x	0.6	19	x
COc1ccc(/C=N/Nc2nc(-c3ccc(Cl)cc3)cc(C(F)(F)F)n2)c(OC)c1	u	u	3%	2.4%	1.9	-11	-6
Cc1noc(C)c1S(=O)(=O)Nc1ccc2c(c1)C(=O)N([C@H](C)CO)C[C@H](C)[C@@H](CN(C)C(=O)NC1CCCCC1)O2	x	x	-2%	-7.1%	x	x	27
COc1cc(/C=N\NC(=O)CN2CCOCC2)ccc1OCC(=O)Nc1ccc(C)c(C)c1	7%	4%	-22%	-7.0%	2.1	x	-7
O=C(COC(=O)c1ccc([N+](=O)[O-])cc1)NC1CCCC1	u	6%	1%	-1.2%	-0.1	-2	20
CC(C)(C)c1ccc(-c2ncccc2O)cc1	2%[15.4 µM]	-7%	1%	x	0.9	-19	29
O=C(CN(C(=O)c1nsc(Cl)c1Cl)c1cccc(F)c1)NC1CCCC1	8%[15.4 µM]	-7%	-5%	-0.2%	-5.9	2	-6
CC(C)(C)c1ccc(S(=O)(=O)N2CCCCC2C(=O)NCc2ccccn2)cc1 (stereo not given)	12%	4%	-10%	-1.1%	-0.4	15	4
CCOC(=O)c1oc2ccc(S(=O)(=O)n3nc(-c4cc(OC)c(OC)c(OC)c4)cc3N)cc2c1C	22%	12%	-25%	-1.6%&-4.7%	-1.3	18	9&17
COC(=O)C1CSC(C(=O)OC)N1C(=O)Nc1ccc(Cl)c(Cl)c1 (stereo not given)	14%	0%	-14%	0.9%	-0.1	-13	6
Cc1ccc2c(c1)NC(=O)C(CC(=O)NCCN(C)C)O2 (stereo not given)	u	-21%	10%	-1.1%	0.9	3	19
C=CCc1c(C)nc(N)[nH]c1=O	-3%	-1%	0%	-0.1%	0.3	6	-8
CC1CC(C)CN(CC(C)(C)NS(=O)(=O)c2ccc(Cl)cc2)C1 (stereo not given)	-11%	7%	14%	1.3%	2.1	-18	-3
CC(C)C(NC(=O)CN1C(=O)c2cccc3cccc1c23)C(C)C	u	-1%	3%	u	-1.6	-2	7
Cc1ncsc1CCOC(=O)c1ccc(N2CCOCC2)c([N+](=O)[O-])c1	1%	-11%	-15%	1.3%	-7.7	-10	-3
O=C(O)CCC(=O)NNC(=O)COc1ccc2ccccc2c1Br	10%[15.4 µM]	4%	-5%	x	-1.5	-1	-1
CCOC(=O)NC(=O)/C(C#N)=C\Nc1sccc1C(=O)OC	-1%[15.4 µM]	u	0%	x	u	8	-11
C/C(CCc1ccco1)=N/NC(=O)CCC(=O)Nc1ccc(Br)cc1	-32%[inhibitor]	15%	0%	x	7.4	0	12
CCCCN1CC[C@H]2C=CC[C@@H](C(=O)Nc3ccc(Cl)c(C(F)(F)F)c3)[C@H]2C1=O	x	x	2%	-4.0%&-0.3%	x	x	22
COc1cc(/C=C2\CCc3ccccc3C2=O)cc(OC)c1OC	-8%[15.4 µM]	-21%	-5%	267%	0.8	-16	-1

Of the compounds above, these contain a nitro group on carbon.
molecule	gsp agonist	Sfp PPTase inh	gsp antag	ClpP mod	Menin-MLL FL inh	TRPV1 PAM	TRPML1 blocker
CN(C)CCN1C(=O)c2cccc3cc([N+](=O)[O-])cc(c23)C1=O	19%	x	u	-3.0%	x	x	4
O=C(c1ccccc1F)N1CCN(c2ccc([N+](=O)[O-])c3cccnc23)CC1	7%[15.4 µM]	-1%	-92%	x	-4.5	-1	4
O=C(COC(=O)c1ccc([N+](=O)[O-])cc1)NC1CCCC1	u	6%	1%	-1.2%	-0.1	-2	20
Cc1ncsc1CCOC(=O)c1ccc(N2CCOCC2)c([N+](=O)[O-])c1	1%	-11%	-15%	1.3%	-7.7	-10	-3

Later entries
molecule	gsp agonist	Sfp PPTase inh	gsp antag	ClpP mod	Menin-MLL FL inh	TRPV1 PAM	TRPML1 blocker
O=C(Cn1cnc2ccccc21)N/N=C/c1ccccc1[N+](=O)[O-]	-10%[15.4 µM]	6%	5%	-3.3%	2.9	1	-4
CCN1CCCCC(=N/O)/C(=N/O)CCCC1	-6%	3%	3%	1.4%	-6.4	-13	4
O=C(Nc1cccc2ccccc12)OCc1cncs1	u	-7%	10%	x	0.7	-18	13
O=C(O)c1cc(-n2cccc2)ccc1N1CCOCC1	-2%[15.4 µM]	17%	-3%	-1.2%	-1.6	7	0
CCC/C(O)=C1\C(=O)CCCC1=NCCc1c(C)[nH]c2ccccc12	-19%	-1%	-15%	1.1%	0.4	-21	-12
O=C(OCC(=O)N1CCCc2ccccc21)c1cncc(Br)c1	6%	71µM*	5%	-1.4%	11	u	-11
CCOC(=O)C(CCSC)NC(=O)CN (stereo not given)	6%	3%	7%	0.0%	-1.9	0	4
CC1CCN(C(=O)C2CCCN(S(C)(=O)=O)C2)CC1 (stereo not given)	9%	24%	-4%	0.8%	0.0	6	4
CCCn1c(=N)c(C(=O)NC2CCCC2)cc2c(=O)n3cccc(C)c3nc21	22%	12%	3%	3.8%&-1.0%	-9.8	13	-12&28
Cn1c(C(=O)OC(C(=O)NCc2ccco2)c2ccncc2)cc2sccc21 (stereo not given)	-1%	-7%	-4%	-1.7%	2.2	3	8
Cc1ccc(C2=NS(=O)(=O)N(C)C(C(=O)NCc3ccccn3)=C2)cc1	-78%[inhibitor]	7%	4%	-8.7%	-3.5	-10	24
COc1cccc(CNC(=O)C(=O)N2CCC3(CC2)OCCN3S(=O)(=O)c2ccc(C)cc2)c1	-13%	x	1%	-0.8%	x	1	3
CCCCSc1nc2sc3c(c2c(=O)[nH]1)CCC3	20%	-3%	12%	-5.8%	0.4	-20	u
COc1ccc(C2N(c3cccc(Cl)c3)C(=O)C3CCCN32)cc1 (stereo not given)	27%	-7%	-3%	0.0%	4.1	x	6
CN(C)CCN=Cc1c(O)n(Cc2ccccc2)c(=O)c2ccccc12	-2%[15.4 µM]	-1%	6%	x	-4.9	0	-10
O=[N+]([O-])c1ccc(NS(=O)(=O)c2cccc3cccnc23)cc1	-12%	-8%	-3%	0.4%	1.8	7	39
